Screens as filed in PubChem.
gsp ag: qHTS for Agonist of gsp, the Etiologic Mutation Responsible for Fibrous Dysplasia/McCune-Albright Syndrome: qHTS; gsp mutant cells, cAMP HTRF, 30 min; control for the full effect not named in the record; Potency, µM (titrated, usually from 76.9 µM), for inactives: top-dose activation (cAMP increase), hits mostly activators; actives 0.13% (n = 340,000); AID 624287, 2012; active = well fitted activation curve with a large enough effect; inconclusive = small, poorly fitted or top-dose-only effect, or another doubt; inactive = no such curve, though single readings can be large or run the other way; cell line not stated here;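 note: phosphodiesterase inhibitor Ro 20-1724 added with compounds to block cAMP breakdown; potency is the fitted concentration of half-maximal effect; nearly all actives have a fitted effect of over 60% in size; about a fifth of the inactives were tested at one dose only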
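Cells stably selected in G418 were plated at 2000/well, grown 16-24 hr, then given compounds in DMSO with the PDE inhibitor […] (300 uM solution added) for 30 min at 37C; cAMP was read by HTRF.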
ClpP mod: qHTS Assay for Activators of ClpP | ATP-dependent Clp protease proteolytic subunit (Bacillus subtilis (strain 168)), P80244 | Potency, µM (highest dose often 57.5 µM), without a hit: at the highest dose activity change, negative = active | purified B. subtilis ClpP, FRET peptide cleavage, 20 min | actives 1.9% (n = 340,000); active = well fitted falling curve with a large enough effect; inconclusive = small, poorly fitted or top-dose-only effect; inactive = no such curve, though single readings can be large or run the other way; note: potency is the fitted concentration of half-maximal effect; the source files actives as falling curves though it sought activators and does not explain the sign; nearly all actives have a fitted effect of over 65% in size; many hits overshoot -100%
Target sequence (P80244 whole entry, looked up): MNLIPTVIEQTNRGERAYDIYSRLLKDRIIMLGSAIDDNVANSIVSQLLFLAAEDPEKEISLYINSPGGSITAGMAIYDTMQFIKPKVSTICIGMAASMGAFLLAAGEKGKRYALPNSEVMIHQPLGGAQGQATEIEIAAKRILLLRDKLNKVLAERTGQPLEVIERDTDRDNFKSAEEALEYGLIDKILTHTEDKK
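ClpP 10 microg/mL final, pH 8 Tris/KCl buffer with BSA, glycerol, Tween-20; compound pinned in; FRET-FV substrate; RT 20 min; Ex320/Em430; ΔFRET vs ADEP 5.8 microM, DMSO, no enzyme.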
Menin-MLL FL inh: qHTS Assay for Inhibitors Targeting the Menin-MLL Interaction in MLL Related Leukemias: Competition With Fluorescein Labeled MLL-derived Peptide; FP activity change, % at 61.4 µM; 290,000 tested, under 10 active; Fluorescence polarization, fluorescein-MLL peptide displacement from menin; inconclusive = falling polarisation curve, or a change in total fluorescence; inactive = total fluorescence flat and polarisation flat or rising; no compound was filed as active; the % refers to the polarisation; negative = inhibition;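 note: % of control where 0% means no effect; inhibitors lower the polarisation; unlabelled MLL peptide was the positive control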
gsp antag: qHTS for Antagonists of gsp, the Etiologic Mutation Responsible for Fibrous Dysplasia/McCune-Albright Syndrome: qHTS; gsp-mutant cells, cAMP HTRF, 30 min; control for the full effect not named in the record; Potency, µM (series often up to 76.9 µM), for the others: at the highest dose activity change, negative = inhibition, most hits filed as inhibitors; AID 624288, 2012; actives 0.4% (n = 340,000); active = falling curve of any shape with a large fitted effect; inconclusive = falling curve, mostly with a smaller effect; inactive = flat or rising curve; cell line not stated here;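 note: intracellular cAMP measured with PDE inhibitor Ro 20-1724 present during compound exposure; potency is the fitted concentration of half-maximal effect; % is set by controls: 0 for no effect and ±100 for the full control effect; nearly all actives have a fitted effect of over 65% in size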
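HTRF cAMP read-out (cAMP-d2 plus anti-cAMP antibody-K in lysis buffer, 30 min RT). Before lysis, cells are exposed to compounds with […] for 30 min at 37C in DPBS containing Ca/Mg, BSA and Tween 20.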
Sfp inh: qHTS Assay for Inhibitors of Bacillus subtilis Sfp phosphopantetheinyl transferase (PPTase); 4'-phosphopantetheinyl transferase ffp (Bacillus subtilis), Q9F4F7; Biochemical Sfp PPTase activity, qHTS; Potency, µM, for inactives: max response, negative = inhibition, usual class: inhibitors; actives 3.5% (n = 310,000); AID 1490, 2009; active = well fitted inhibition curve with a large enough effect; inconclusive = small, poorly fitted or top-dose-only effect, or another doubt; inactive = no such curve, though single readings can be large or run the other way;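 note: the enzyme is Sfp with the accession as filed and its product quenches rhodamine fluorescence; potency is the fitted concentration of half-maximal effect; 0% = enzyme reaction without inhibitor and -100% = no enzyme wells; top concentration of the series not given in the record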
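Compounds were incubated with enzyme (final 15 nM) for 15 min at room temperature before substrate addition started the reaction. Fluorescence at 525 nm excitation, 598 nm emission was recorded immediately and after 30 minutes.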
TRPML1 inh: qHTS for Inhibitors of the Human Mucolipin Transient Receptor Potential 1 (TRPML1); Mucolipin-1 (Homo sapiens), Q9GZU1; TRPML1-inducible cells, Ca2+ dye fluorescence, FDSS; hits give low values; inhibition of EC80 agonist-evoked calcium signal; actives 0.02% (n = 390,000); activity change, negative = inhibition, % (concentration not given with the values); AID 624415, 2012; in the data active means activity change below about -50%; inconclusive means about -30% to -50%; inactive means above about -30%;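 note: stimulus is agonist 54-4 at its EC80 concentration; % is set by controls: 0 for no effect and ±100 for the full control effect; compound concentration not given in the record; the text of the record puts the active cut at -80%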
Target sequence (Q9GZU1 whole entry, looked up): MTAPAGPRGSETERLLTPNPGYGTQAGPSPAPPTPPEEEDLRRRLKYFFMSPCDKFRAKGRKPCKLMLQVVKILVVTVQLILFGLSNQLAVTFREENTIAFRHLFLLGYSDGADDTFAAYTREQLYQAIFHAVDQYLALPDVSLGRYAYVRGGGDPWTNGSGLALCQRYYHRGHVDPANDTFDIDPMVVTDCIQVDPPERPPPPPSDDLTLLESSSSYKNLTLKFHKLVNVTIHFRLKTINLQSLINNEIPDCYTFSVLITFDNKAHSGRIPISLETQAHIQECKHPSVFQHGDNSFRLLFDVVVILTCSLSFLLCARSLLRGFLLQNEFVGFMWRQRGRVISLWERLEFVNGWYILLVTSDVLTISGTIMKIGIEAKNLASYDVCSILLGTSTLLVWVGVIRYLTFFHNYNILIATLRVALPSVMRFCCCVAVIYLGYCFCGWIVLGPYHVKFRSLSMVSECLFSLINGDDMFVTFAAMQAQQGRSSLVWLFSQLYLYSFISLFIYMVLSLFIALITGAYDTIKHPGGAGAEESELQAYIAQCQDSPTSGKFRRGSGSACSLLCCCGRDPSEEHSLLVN
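Tet-induced TRPML1-DL cells loaded with Ca8 no-wash calcium dye were read kinetically on FDSS. Compound addition was followed by EC80 agonist 54-4 (4 uM final); inhibition was read over 110 s.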
TRPV1 potentiator: HTS Assay for Compounds that Act as Potentiators of the Vanilloid Receptor 1 | TRPV1-expressing cells, Fluo-8 calcium influx, capsaicin EC20 potentiation; host cell line not named in the record; control for the full effect not named in the record | potentiation, % at 8.33 µM | actives 0.02% (n = 320,000) | AID 540277, 2011; active means potentiation above 80%; inconclusive means 30% to 80%; inactive means below 30%; note: 0% is about no effect
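TRPV1-expressing cells were cultured overnight at 35.5C and loaded with Fluo-8 calcium dye for 40 to 90 min at room temperature. After a 10 s baseline, compound was added and calcium influx was read kinetically for 3 min (ex 480/em 520 nm).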
Starred values were filed as active, the others as inactive; ? = inconclusive; . = not tested or not shown; & = joins results of further samples; [ ] = remark or other dose.

SMILES | gsp ag | ClpP mod | Menin-MLL FL inh | gsp antag | Sfp inh | TRPML1 inh | TRPV1 potentiator
COCC(=O)N(C)C[C@H]1Oc2ncc(C#C[C@H](C)O)cc2C(=O)N([C@@H](C)CO)C[C@H]1C | -2.4% | -9.1% | . | . | . | -14.8 | .
O=C(O)CCN1c2cccc3cccc(c23)S1(=O)=O | 17.6% | . | -0.7 | -8.0% | 15.9% | 33.2 | -7.5
CCS(=O)(=O)NCC(c1cccnc1)N1CCN(c2ccccc2OC)CC1 (configuration not stated) | -44.4% | -0.5% | 1.6 | 7.8% | 14.0% | 7.0 | 3.6
CCC1(c2ccccc2)ON(c2c(Br)cccc2Br)C1=O (configuration not stated) | . | 1.9% | . | 11.9% | . | 20.6 | 13.3
CN1CCN(c2nc(-c3ccccc3)nc(-c3ccccc3)c2C#N)CC1 | -5.1%[15.4 µM] | . | 0.5 | -8.0% | -23.3% | 24.4 | -5.2
COC(=O)CSc1nnc(-c2cccnc2)o1 | 16.8% | -3.0% | 2.9 | 9.5% | 12.2% | -16.5 | -7.7
Cc1ccc(NC(=O)c2ccccc2OCC(=O)c2ccccc2)cc1 | -4.4% | -4.2% | 0.8 | -5.7% | 9.3% | 23.3 | 7.2
O=C(CSc1nnc(-c2cc3ccccc3cc2O)n1Cc1ccco1)N1CCc2ccccc2C1 | -17.4% | -6.4% | 5.8 | -17.9% | 44.7µM* | -9.1 | 3.8
FC(F)(F)c1nc(-c2ccncc2)ncc1-c1nnnn1-c1ccccc1 | -45.5%[inhibitor] | -0.8% | 3.4 | -12.6% | -7.6% | 8.6 | 2.3
CCc1cc(=O)oc2cc(C)cc(OC(C)C(=O)NC3CC(C)(C)NC(C)(C)C3)c12 (configuration not stated) | 2.0% | 4.1% | 0.1 | 2.2% | 17.6% | -9.6 | -4.0
Cn1c(-c2ccccc2)c(C(=O)CCl)c2ccccc21 | -4.3%[15.4 µM] | . | 1.5 | . | -28.0% | -1.9 | 0.8
O=C(CCCn1c(=O)[nH]c2ccc(Br)cc2c1=O)NCc1ccc(Cl)cc1 | 11.7% | . | -1.2 | 7.2% | 3.1% | 0.4 | -11.6
O=c1cc(C(F)(F)F)oc2c1ccc1ccccc12 | 5.1% | ? | 5.0 | 7.0% | 9.1% | -16.9 | -4.5
COc1ccc(CCC(=O)Nc2cccc(S(=O)(=O)N3CCOCC3)c2)cc1OC | -40.8% | 1.5% | . | -0.4% | . | 12.1 | ?
Cc1cccc(NC(=O)c2ccc3c(=O)n4c(nc3c2)CCCCC4)n1 | 3.8% | 6.6% | . | 4.5% | . | -1.9 | -8.3
COC(=O)c1sc2cnccc2c1N | -7.6% | 14.1µM* | 0.4 | -0.3% | 9.8% | 8.9 | 4.0
O=C1Nc2ccc(Br)cc2/C1=C/C(=O)c1ccc2c(c1)OCO2 | 14.9% | 0.5% | 6.3 | 3.5% | 56.2µM* | 23.5 | -10.9
Cc1cc2oc(C(=O)NCCc3ccc(S(N)(=O)=O)cc3)cc(=O)c2cc1C | 21.8% | -13.7% | 3.3 | 9.1% | 10.5% | -2.2&-15.9 | 1.4
O=C1c2ccccc2C(=O)N1CCSc1ncn[nH]1 | -17.4% | -0.4% | 3.4 | -0.8% | -7.5% | 3.8 | -1.5
Cc1csc2c(NCCCN3CCOCC3)ncnc12 | -6.2%[15.4 µM] | -5.3% | -1.0 | -30.7% | 24.4% | -1.3 | -2.4
CC(C)Cn1c(CCC(N)=O)nnc1SC(C)C(=O)Nc1ccc2c(c1)OCO2 (configuration not stated) | 20.5% | 1.9% | . | 3.4% | . | 6.5 | 11.2
Cc1c(C(=O)NCc2cccnc2)oc2ccc(S(=O)(=O)N3CCCC(C)C3)cc12 (configuration not stated) | -13.3% | 0.3% | 3.1 | ? | -6.4% | 13.2 | -2.4
CCc1ccc(NC(=O)Nc2ccsc2C(=O)OC)cc1 | ? | -14.8% | 0.8 | ? | -2.9% | -5.4 | -9.5
CCN1CCN(C(=O)CCn2c(=O)c3cccn3c3cccnc32)CC1 | -6.9% | 3.9% | . | 3.4% | 10.5% | 11.9 | 0.9
CC(NC(=O)Cn1cnc2c1c(=O)n(C)c(=O)n2C)c1ccccc1 (configuration not stated) | ? | 1.3% | -0.3 | 14.2% | 21.7% | 0.8 | -0.4
(more compounds)
SMILES | gsp ag | ClpP mod | Menin-MLL FL inh | gsp antag | Sfp inh | TRPML1 inh | TRPV1 potentiator
CCCC(c1nnnn1CS(=O)(=O)c1ccc(C)cc1)N1CCN(c2ccccc2)CC1 (configuration not stated) | 12.2% | -1.4% | 2.9 | -0.7% | 14.2% | 41.5 | -30.1
CC(C)CC(NC(=O)C1CCC(C)CC1)C(=O)Nc1ccccc1F (configuration not stated) | -2.9%[15.4 µM] | . | 2.0 | 13.8% | 10.4% | 3.7 | -12.2
CN(C)S(=O)(=O)c1ccc(C(=O)NCCN=C2NS(=O)(=O)c3ccccc32)cc1 | ? | . | -8.9 | 0.4% | 2.1% | -21.7 | 1.0
CCOc1ccc(-c2nnn(CCC(=O)O)n2)cc1OC | 17.9% | 0.5% | 2.9 | 0.8% | 5.6% | 2.8 | -12.8
CN(CC(=O)NCCc1ccc(Cl)cc1)S(=O)(=O)c1ccc2c(c1)c(=O)n(C)c(=O)n2C | 20.6% | -5.2% | 1.9 | ? | 5.6% | 36.5 | ?
Cc1ccccc1-n1c(=O)[nH]c(=O)c2c(N)c(C(=O)c3ccc(Cl)cc3)sc21 | 3.6%[15.4 µM] | 12.8% | 2.2 | 5.6% | 0.0% | -6.8 | 7.3
CCOC(=O)c1cc(CC)sc1NC(=O)C1CC1 | -15.2% | -6.5% | 3.9 | -10.6% | -5.7% | -2.8 | -22.6
COc1cc(/C=C/C(=O)O)cc(Br)c1O | 2.2%[15.4 µM] | . | 0.6 | -10.6% | 29.6% | 10.2 | -5.4
C=CCc1cccc2cc(C(=O)N(CC)CC)c(=O)oc12 | 17.4% | -7.5% | 7.1 | 8.0% | 15.7% | 0.5 | 6.3
COc1ccc(NC(=O)C2CCCN2C(=O)Nc2ccc(OC)cc2)cc1 (configuration not stated) | -5.8%[15.4 µM] | . | -3.2 | 11.4% | 10.3% | 6.7 | 10.1
COCCNC(=O)c1onc(CSc2cc(C)ccc2C)c1C(=O)O | 15.4% | -1.1% | 3.5 | 3.4% | 15.2% | -0.2 | 8.3
CC1CCCCC12NC(=O)N(CC(=O)NCc1ccco1)C2=O (configuration not stated) | 22.5% | 2.4% | . | 10.2% | . | -10.2 | -3.5
COc1ccccc1NC(=O)CSc1ccc(-c2cccs2)nn1 | 3.9%[15.4 µM] | . | 1.9 | -15.9% | 14.9% | 3.6 | 2.0
CC(C)OC(=O)CSc1nnc(-c2ccc([N+](=O)[O-])cc2)o1 | -0.1% | . | -0.8 | 0.4% | 14.1% | 1.3 | -15.6
Cc1ccc(CNC(=O)CCC(=O)Nc2nnc(C3CCCCC3)s2)cc1 | -4.4%[15.4 µM] | 28.2µM* | -0.9 | 12.6% | ? | 3.9 | 1.1
Cc1noc(C)c1CSc1nnc2scc(-c3ccc(Cl)cc3)n12 | 0.2% | -0.5% | -2.2 | -9.2% | -3.4% | 16.6 | -12.7
Cc1ccc(Cl)c(OCC(=O)NN2CCN(C)CC2)c1 | -1.5% | -0.3% | 0.6 | 12.5% | 15.2% | . | -2.8
O=C(O)C(Cc1ccnc2ccccc12)=NO | 4.1% | 1.5% | . | -11.5% | . | 10.5 | .
O=C(CCN1CCN(CCO)CC1)Nc1ccc(F)c(F)c1 | -2.5% | -0.3% | -1.1 | -2.4% | 10.7% | 27.8 | 16.3
O=C(COC(=O)c1ccco1)Nc1nnc(-c2ccccc2)o1 | 12.7%[15.4 µM] | . | . | -0.8% | . | 11.9 | 16.1
C/C(N)=C(/C#N)C(=O)COC(=O)CC1CCCC1 | -18.8% | -1.1% | 1.9 | -0.6% | 24.0% | -18.1 | -15.5
O=C(O)C(=O)/C(=C\c1ccc(Cl)cc1)c1ccc2ccccc2n1 | 0.7%[15.4 µM] | . | ? | 0.8% | -11.6% | -0.3 | 5.1
O=C(NC1CCCC1)C(c1ccc(Cl)cc1)N1CCOCC1 (configuration not stated) | 4.4% | 1.3% | 2.2 | 10.5% | 16.9% | -8.2 | 1.1
Cc1c(CCOC(=O)c2cc([N+](=O)[O-])cc([N+](=O)[O-])c2)sc[n+]1CCCCS(=O)(=O)[O-] | 2.2% | 0.3% | 2.6 | -5.8% | 13.6% | 7.6 | 7.1
Cc1nn(CCC(N)=S)c2nc(-c3cccs3)cc(C(F)(F)F)c12 | 0.6% | 39.6% | 4.4 | -20.8% | 22.4µM* | 7.2 | 2.8
Next section:
SMILES | gsp ag | ClpP mod | Menin-MLL FL inh | gsp antag | Sfp inh | TRPML1 inh | TRPV1 potentiator
CCc1cccc(C)c1NC(=O)CN(C)Cc1ccc(Br)cc1 | -37.2%[inhibitor] | 0.5% | 6.8 | -9.2% | 1.9% | 54.7 | -19.1
COc1cc(/C=C(\C#N)c2ccccn2)ccc1OCC(=O)Nc1cccc(C(F)(F)F)c1 | -3.3% | -8.6% | 6.2 | 8.6% | -13.9% | -3.5 | 6.0
COc1cc(C(=O)OC(C)C(=O)NC(=O)NC2CCCCC2)ccc1OC(F)F (configuration not stated) | -2.4% | -2.2% | . | 4.6% | . | -1.2 | -2.0
O=C(O)COc1ccc(Oc2ccccc2)cc1 | -6.7% | -1.7% | 2.4 | 2.1% | 20.1% | 4.8 | 10.6
Cc1ccc(-c2nnc(SCC(=O)Nc3cccnc3Cl)n2N)cc1 | 15.6% | 0.9% | . | 2.1% | . | 4.4 | .
Cc1cc(=O)oc2cc(N3C(=O)CC(Cc4ccccc4)C3=O)ccc12 (configuration not stated) | 0.0% | 3.7% | -1.9 | 9.4% | 6.9% | 6.7 | 2.1
O=C(O)C1(c2ccccc2)CCN(S(=O)(=O)c2ccc(Br)cc2)CC1 | -60.6%[inhibitor] | . | 1.9 | -20.8% | 21.6% | 5.5 | 1.9
